Screening results (PubChem BioAssay)
SARS PLpro yeast: SARS-CoV PLP inhibition in yeast; S. cerevisiae expressing SARS-CoV PLpro, growth rescue; control for the full effect not named in the record; Potency, µM (doses to about 32.9 µM), inactives show at the highest dose activity, positive = growth rescue; 330,000 tested, 0.19% active; also: 0% is about no effect; nearly all actives have a fitted effect of over 55% in size; growth read by luminescence after 48 h
RE007 growth inh: less growth of the S. pombe RE007 Vpr strain; S. pombe RE007 Vpr strain, BacTiter-Glo ATP luminescence, 24 h; control for the full effect not named in the record; 360,000 tested, 0.21% active; Potency, µM (titrated, usually from 92.2 µM), for the others: at the highest dose activity change, negative = less growth; active = well fitted falling curve with a large enough effect; inconclusive = small, poorly fitted or top-dose-only effect; inactive = no such curve, though single readings can be large or run the other way;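 also: % is scaled to controls: 0 for no effect and ±100 for the full control effect; nearly all actives have a fitted effect of over 50% in size; the assay follows cell death caused by Vpr and the record does not say whether a fall means rescue or toxicity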
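Fission yeast strain RE007, carrying one chromosomally integrated HIV-1 vpr copy, was seeded at OD 0.01 in PMG+AL medium with 23 nL pinned compound. After 24 h at 30 °C and 99% humidity, viability was read by BacTiter-Glo luminescence.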
Marburg entry inh: blocks Marburg virus binding to or entry into cells | Marburg virus pseudotyped entry inhibition, cell reporter; control for the full effect not named in the record; about a third of the inactives were read at about 46 µM | Potency, µM (series often up to 37.8 µM), for the others: at the top dose activity change, negative = inhibition, hits mostly inhibitors | 300,000 tested, 1.8% active | AID 540276; active = well fitted inhibition curve with a large enough effect; inconclusive = small, poorly fitted or top-dose-only effect, or effect the other way; inactive = flat fitted curve, though single readings scatter; tested in HEK293 cells; about a fifth of its hits are not listed in these tables; also: % is scaled to controls: 0 for no effect and ±100 for the full control effect; luciferase read-out
Cruzain noTriton: cruzain (T. cruzi) inhibition without detergent; P25779; purified cruzain, Z-FR-AMC fluorescence, no detergent; Potency, µM, inactives show max response, negative = inhibition, usual class: inhibitors; 200,000 tested, 2.3% active; active = well fitted curve in the direction sought with a large enough effect; inconclusive = small, poorly fitted or top-dose-only effect, or another doubt; inactive = no such curve, though single readings can be large; an effect the other way counts as inactive or inconclusive;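 also: plate controls were enzyme without inhibitor for no effect and buffer without enzyme for full effect; nearly all actives have a fitted effect of over 40% in size; top concentration of the series not given in the record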
Target sequence (P25779 123-467 limits assumed): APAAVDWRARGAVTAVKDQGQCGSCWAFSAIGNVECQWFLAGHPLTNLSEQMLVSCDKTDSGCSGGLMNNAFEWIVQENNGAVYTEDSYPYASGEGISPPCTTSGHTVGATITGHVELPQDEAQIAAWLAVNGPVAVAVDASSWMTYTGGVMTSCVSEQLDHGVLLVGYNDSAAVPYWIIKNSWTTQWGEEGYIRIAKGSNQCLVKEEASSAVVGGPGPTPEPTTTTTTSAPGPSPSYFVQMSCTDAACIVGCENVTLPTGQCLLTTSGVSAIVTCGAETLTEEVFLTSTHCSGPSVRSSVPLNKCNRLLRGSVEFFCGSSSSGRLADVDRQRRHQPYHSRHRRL
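Purified cruzain at 1.5 nM, pre-incubated 15 min with compound at room temperature in 100 mM sodium acetate pH 5.5, 5 mM DTT, 0.00005% Triton X-100. Reaction started with 2 uM Z-FR-AMC; AMC fluorescence increase over 60 s gives rate.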
2A StopGo: FMDV 2A StopGo reporter, luciferase signal. 410,000 tested, 1.2% active. Potency, µM (titrated, usually from 57.9 µM), for inactives: at the top dose signal change, negative = less light. human cells with a luciferase reporter of 2A StopGo recoding; control for the full effect not named in the record; active = well fitted falling curve with a large enough effect; inconclusive = small, poorly fitted or top-dose-only effect; inactive = no such curve, though single readings can be large or run the other way; tested in HEK293T cells; also: % is scaled to controls: 0 for no effect and ±100 for the full control effect; nearly all actives have a fitted effect of over 45% in size; luciferase light after 4 h
Lassa entry inh: inhibitors of Lassa virus binding or cell entry; Lassa virus pseudotype entry inhibition, cell reporter; control for the full effect not named in the record; Potency, µM (titrated, usually from 37.9 µM), inactives show top-dose activity change, negative = inhibition, actives largely listed as inhibitors; 300,000 tested, 1.2% active; active means well fitted inhibition curve with a large enough effect; inconclusive means small, poorly fitted or top-dose-only effect, or effect the other way; inactive means flat fitted curve, though single readings scatter; tested in HEK293 cells; also: % is scaled to controls: 0 for no effect and ±100 for the full control effect; nearly all actives have a fitted effect of over 50% in size; luciferase read-out
Cruzain inh Det: inhibitors of Trypanosoma cruzi cruzain with detergent; AID 1478; 200,000 tested, 0.43% active; purified cruzain, Z-FR-AMC fluorescence, 0.01% Triton; P25779; Potency, µM, for the others: max response, negative = inhibition, most hits filed as inhibitors; active = well fitted curve in the direction sought with a large enough effect; inconclusive = small, poorly fitted or top-dose-only effect, or another doubt; inactive = no such curve, though single readings can be large; an effect the other way counts as inactive or inconclusive;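 also: plate controls were neutral wells for no effect and buffer without enzyme for full effect; nearly all actives have a fitted effect of over 40% in size; top concentration of the series not given in the record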
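Read-out: AMC fluorescence (360 nm excitation, 450 nm emission), four reads over 2 min, first-to-third difference used. Conditions: cruzain 1.5 nM, Z-FR-AMC 2 uM, pH 5.5 acetate, 5 mM DTT, 0.01% Triton X-100.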
NS1 function inh: blocks influenza NS1 protein function; 270,000 tested, 0.4% active; S. cerevisiae slowed by influenza A NS1, growth recovery by OD600; Potency, µM (top dose mostly 46.1 µM), for the others: at the top dose activity, positive = more growth; also: actives are rising curves; nearly all actives have a fitted effect of over 50% in size
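Read-out: OD600 growth recovery of NS1-expressing budding yeast. Cells grown overnight at 30C in -URA glucose medium, washed, resuspended and diluted 1:100 in 2% galactose assay medium, pH 6.0. Same strain lacking NS1 served as positive control.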
Active calls of the source: *; u = inconclusive; x = no result given; & = joins results of further samples; [ ] = dose if it differs, or a comment. Unless noted, calls follow the shape of the dose curve; as a rule, active means well fitted rising curve with a large enough effect; inconclusive means small, poorly fitted or top-dose-only effect; inactive means no such curve, though single readings can be large or run the other way. Potency is read from the fitted curve at half-maximal effect. Rows were taken by chance (roughly 4.7% active in at least one column).

no.	mol	SARS PLpro yeast	RE007 growth inh	Marburg entry inh	Cruzain noTriton
1	COc1cccc(C2=NOC(C(=O)Nc3cccnc3Cl)C2)c1OC (stereo unspecified)	5%	8%	-3%[46.1 µM]	x
2	Cc1cc(=O)[nH]c2nnc(SCc3ccccc3F)n12	x	x	x	2%
3	N#Cc1c(-c2cccs2)cc(-c2cccs2)[nH]c1=O	-1%	-12%	10%[46.1 µM]	x
4	O=C1CC=C2C3CC4N(CCC45c4ccccc4N1C25)CC3=CCO (stereo unspecified)	x	4%	7%	x
5	COc1ccc(NC(=O)c2ccc3c(c2)c(C)c(C)n3Cc2ccc(F)cc2)cc1	x	x	x	u
6	CC(=O)Nc1ccc(NC(=O)c2ccc3c(c2)NC(=O)c2ccccc2S3)cc1	x	x	18%[46.1 µM]	20%
7	Nc1nc(-c2cccnc2)nn1S(=O)(=O)c1ccccc1	x	5%	3%	x
8	O=C(COC(=O)C1=COCCO1)Nc1ccc(Br)cc1Br	-1%	9%	u	x

no.	2A StopGo	Lassa entry inh	Cruzain inh Det	NS1 function inh
1	-7%	-2%[46.1 µM]	x	x
2	-1%	-13%[46.1 µM]	-1.9%	x
3	16%	13%	x	-2%
4	-1%	u	x	x
5	-5%	-13%[46.1 µM]	1.0%	x
6	-18%	x	7.7%	x
7	-16%	27%	x	x
8	22%	10%	x	x

Other entries.
no.	mol	SARS PLpro yeast	RE007 growth inh	Marburg entry inh	Cruzain noTriton
9	Cc1cccc(NC(=O)C2CCN(c3nnc(-n4c(C)ccc4C)s3)CC2)c1C	x	x	-4%[46.1 µM]	4%
10	COC(=O)c1cc(NC(=O)c2nccnc2C(=O)O)cc(C(=O)OC)c1	-6%	-1%	x	-13%
11	O=C(Nc1ccc(N2CCCCC2)cc1)c1cccnc1	6%	-8%	17%	-5%
12	O=C1CCCc2[nH]c(=O)c(-c3nc(-c4cccc([N+](=O)[O-])c4)cs3)cc21	x	x	0%[46.1 µM]	17%
13	COc1ccc(OC)c(/C=C/C(=O)N2C(=O)c3cccc(N)c3C2=O)c1	-19%	-22%	u	4%
14	Cc1ccc(OCC2Cn3c(nc4c3c(=O)[nH]c(=O)n4C)O2)cc1 (stereo unspecified)	7%	1%	-8%	-5%
15	COc1cc(OC)c(C2C=C(c3ccc(C)cc3)Nc3c(C(=O)Nc4ccccc4)cnn32)cc1OC (stereo unspecified)	x	x	x	-16%
16	CCC(C)(C)NC(=O)C(c1cccn1C)N(C(=O)Cn1nnc2ccccc21)c1ccccc1OC (stereo unspecified)	-2%	-1%	-5%&-5%	u

no.	2A StopGo	Lassa entry inh	Cruzain inh Det	NS1 function inh
9	u	-5%[46.1 µM]	-7.9%	x
10	-9%	x	1.3%	7%
11	49%[activator]	u	1.2%	-1%
12	-13%	0%[46.1 µM]	-5.7%	x
13	u	u	-1.3%	13%
14	-17%	0%	0.2%	8%
15	-18%	-18%[46.1 µM]	-8.1%	x
16	23%	-1%	1.8%	-2%

Continued; it opens with the two that closed the last part.
no.	mol	SARS PLpro yeast	RE007 growth inh	Marburg entry inh	Cruzain noTriton
15	COc1cc(OC)c(C2C=C(c3ccc(C)cc3)Nc3c(C(=O)Nc4ccccc4)cnn32)cc1OC (stereo unspecified)	x	x	x	-16%
16	CCC(C)(C)NC(=O)C(c1cccn1C)N(C(=O)Cn1nnc2ccccc21)c1ccccc1OC (stereo unspecified)	-2%	-1%	-5%&-5%	u
17	O=C(c1ccc(-n2cncn2)c([N+](=O)[O-])c1)N1CCN(S(=O)(=O)c2cccc(F)c2)CC1	4%	-23%	-30%	x
18	COc1ccc2oc(C(=O)NCc3cc(OC)c(OC)cc3OC)c(C)c2c1	-5%	2%	u	x
19	CC(NC(=S)Nc1ccc(OC(F)F)cc1OC(F)F)C(C)(C)C (stereo unspecified)	-9%	1%	u	-16%
20	CCNC(=O)NC(=O)C(C)On1nnc2ccc(S(=O)(=O)N(CC)CC)cc21 (stereo unspecified)	-6%	44%	-7%	3%
21	COc1ccc(-c2cc(=O)oc3c(C)c(OCC(=O)N(C)C)ccc23)cc1	-10%	-7%	x	x
22	COc1ccc(C(=O)NCCc2cn3ccc(C)cc3n2)cc1	-2%	-9%	1%	0%
23	O=C1CCN(Cc2ccc(Br)cc2)CCN1[C@H](CO)Cc1ccccc1	4%	-11%	x	x
24	CC1(C)CC(=O)C(C2c3ccccc3S(=O)(=O)c3ccccc32)C(=O)C1	1%	7%	2%	x

no.	2A StopGo	Lassa entry inh	Cruzain inh Det	NS1 function inh
15	-18%	-18%[46.1 µM]	-8.1%	x
16	23%	-1%	1.8%	-2%
17	-15%	-6%	x	x
18	u	-21%	x	7%
19	6%	-13%	-3.8%	-32%
20	-16%	-6%	0.4%	-10%
21	-18%	x	x	-27%
22	3%	x	-6.7%	-3%
23	u	x	x	-6%
24	-8%	6%	x	-2%

An excerpt from above, showing only Cruzain noTriton and Lassa entry inh:
No.	SMILES	Cruzain noTriton	Lassa entry inh
16	CCC(C)(C)NC(=O)C(c1cccn1C)N(C(=O)Cn1nnc2ccccc21)c1ccccc1OC (stereo unspecified)	u	-1%
8	O=C(COC(=O)C1=COCCO1)Nc1ccc(Br)cc1Br	x	10%
10	COC(=O)c1cc(NC(=O)c2nccnc2C(=O)O)cc(C(=O)OC)c1	-13%	x
7	Nc1nc(-c2cccnc2)nn1S(=O)(=O)c1ccccc1	x	27%
13	COc1ccc(OC)c(/C=C/C(=O)N2C(=O)c3cccc(N)c3C2=O)c1	4%	u

Carrying on.
no.	mol	SARS PLpro yeast	RE007 growth inh	Marburg entry inh	Cruzain noTriton
25	O=C(c1cccn2c(=O)c3ccccc3nc12)N1CCN(Cc2ccc3c(c2)OCO3)CC1	3%	-5%	-20%	-12%
26	O=C(O)CC/C(=N/NC(=O)c1cccs1)c1ccccc1	4%	1%	u	-2%
27	CCOC(=O)Cn1nc(C)c(NC(=O)CCc2ccc(OC)cc2)c1C	-1%	1%	16%[46.1 µM]	x
28	CCn1cc(C(=O)OCC(=O)Nc2cc(S(=O)(=O)N(C)C)ccc2C)c(=O)c2ccc(C)nc21	0%	5%	0%	24%
29	O=C(CCNS(=O)(=O)c1ccc2c(c1)CCN2C(=O)C1CC1)Nc1ccc(Cl)cc1	x	x	x	-8%
30	CCOc1ccc(/C(O)=C2/C(=O)C(=O)N(c3ccccn3)C2c2ccc(Cl)cc2)c(C)c1 (stereo unspecified)	-1%	-5%	u	x
31	COc1ccc(S(=O)(=O)N(C)c2ccccc2)c2cccnc12	14%	-14%	x	x
32	CCOc1ccc2nc(SCC(=O)NCC3CCCO3)sc2c1 (stereo unspecified)	4%	11%	-6%[46.1 µM]	x

no.	2A StopGo	Lassa entry inh	Cruzain inh Det	NS1 function inh
25	-29%	-2%	-2.9%	-36%
26	-1%	u	-1.5%	9%
27	-7%	0%	x	1%
28	-9%	u	-4.2%	-8%
29	-21%	-1%[46.1 µM]	-2.1%	x
30	-15%	u	x	7%
31	-15%	x	x	2%
32	-7%	-2%[46.1 µM]	x	x

More compounds follow.
no.	mol	SARS PLpro yeast	RE007 growth inh	Marburg entry inh	Cruzain noTriton
33	CC(C)(C)N(Cc1ccccc1)C(=O)COC(=O)C1CCCCC1	3.2µM*	5%	u	x
34	CCOc1ccc(-c2cn3c(n2)sc2cc(C(=O)NCCC4=CCCCC4)ccc23)cc1	x	x	x	-11%
35	COC(=O)c1cc(OC)c(OC)cc1NC(=O)c1ccco1	0%	-13%	-25%	24%
36	COc1ccc(S(=O)(=O)Cc2ccc(C(=O)N3CCC(C(N)=O)CC3)o2)cc1	-2%	-3%	x	-11%
37	Cc1ccc(S(=O)(=O)CCC(=O)c2ccc(O)cc2O)cc1	-29%	u	-7%	-8%
38	CCOc1c(CNCCNC(=O)c2nonc2N)cccc1OC	0%	9%	-12%	-5%
39	Cc1ccc(S(=O)(=O)N2CCN(Cc3nc4ccc(C)cc4o3)CC2)c(C)c1	x	x	x	-2%
40	O=C(Cn1c2c(c(-c3ccccc3Cl)cc1=O)CCC2)N1CCC2(CC1)OCCO2	-2%	4%	7%&7%	16%

no.	2A StopGo	Lassa entry inh	Cruzain inh Det	NS1 function inh
33	0%	-2%	x	x
34	16%	13%[46.1 µM]	1.9%	x
35	u	-5%	-10%	-11%
36	-22%	x	3.9%	u
37	-24%	1%	-2.0%	-52%
38	x	5%	1.5%	-2%
39	-19%	-19%[46.1 µM]	-4.3%	x
40	-20%	0%	6.3%	3%

The results go on.
no.	mol	SARS PLpro yeast	RE007 growth inh	Marburg entry inh	Cruzain noTriton
41	Cc1ccc(NC(=O)Cc2ccc(Cl)c(Cl)c2)cc1S(=O)(=O)N(C)C	-2%	x	u	-14%
42	CCCCC(=O)Nc1nnc(S(=O)(=O)N(CC)c2ccc(OC)cc2)s1	8%	3%	x	x
43	COCCNC(=O)c1cc(-c2cccc(Cl)c2)on1	x	x	u	-4%
44	CC1CCN(C(=O)CSc2nc3ccccc3c(=O)n2Cc2ccc3c(c2)OCO3)CC1	-16%	15%	-28%	-12%
45	COc1cccc(C2C(C(N)=O)=C(C)Nc3ncnn32)c1 (stereo unspecified)	x	x	-1%[46.1 µM]	0%
46	O=C1[C@@H]2C(c3ccc(F)cc3)=NO[C@@H]2C(=O)N1Cc1ccccc1	-1%	-15%	-24%[14.2 µM]	x

no.	2A StopGo	Lassa entry inh	Cruzain inh Det	NS1 function inh
41	22µM*	13µM*	-10.0%	-20%
42	0%	x	x	7%
43	33%[activator]	5%[46.1 µM]	-7.2%	x
44	52%[activator]	1%	2.5%	u
45	-6%	9%[46.1 µM]	-1.3%	x
46	11%	9%	x	-4%
